Screening data (PubChem BioAssay)
eIF4H inh: inhibitors of RNA binding by human eIF4H | eIF4H fluorescence polarization binding assay | 0.94% of 290,000 active | inhibition, % at 35 µM | AID 2012;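 active = 50% or more with normal probe brightness, or confirmed in later tests; inconclusive = above 50% with abnormal brightness, or retests that disagree; inactive = below 50% or failed in later tests; about a fifth of its hits are not listed in these tables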;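 note: calls also rest on retests at 20 µM and on dose response follow-up; 0% = protein and probe with vehicle and 100% = probe without protein; strong numbers were not always called active; many hits fall short of the cut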
Env fusion inh: blocks HIV Env-driven cell-cell fusion. HeLa-JRFL Env/CEM21 cell fusion, luciferase. inhibition, % at 12.3 µM. AID 651610. 1.1% of 360,000 active;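 active = mean replicate inhibition score of at least 50 and every replicate individually at or above 50; inconclusive = only one of the two criteria met; inactive = mean below 50 and not all replicates reaching 50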;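 note: 0% = plate neutral controls and 100% = maraviroc near 300 nM; one replicate is shown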
PABP FP inh: blocks human PABP binding to poly(A) RNA; P11940; fluorescence polarization; inhibition, % at 35 µM; 1% of 290,000 active;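 active = 50% or more with normal probe brightness, or confirmed in later tests; inconclusive = above 50% with abnormal brightness, or retests that disagree; inactive = below 50% or failed in later tests; about a fifth of its hits are not listed in these tables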;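 note: calls also rest on retests at 20 µM and on dose response follow-up; controls were probe without protein and protein plus probe with vehicle; some compounds called inactive have numbers as strong as hits; many hits fall short of the cut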
Target sequence (P11940 whole entry, looked up): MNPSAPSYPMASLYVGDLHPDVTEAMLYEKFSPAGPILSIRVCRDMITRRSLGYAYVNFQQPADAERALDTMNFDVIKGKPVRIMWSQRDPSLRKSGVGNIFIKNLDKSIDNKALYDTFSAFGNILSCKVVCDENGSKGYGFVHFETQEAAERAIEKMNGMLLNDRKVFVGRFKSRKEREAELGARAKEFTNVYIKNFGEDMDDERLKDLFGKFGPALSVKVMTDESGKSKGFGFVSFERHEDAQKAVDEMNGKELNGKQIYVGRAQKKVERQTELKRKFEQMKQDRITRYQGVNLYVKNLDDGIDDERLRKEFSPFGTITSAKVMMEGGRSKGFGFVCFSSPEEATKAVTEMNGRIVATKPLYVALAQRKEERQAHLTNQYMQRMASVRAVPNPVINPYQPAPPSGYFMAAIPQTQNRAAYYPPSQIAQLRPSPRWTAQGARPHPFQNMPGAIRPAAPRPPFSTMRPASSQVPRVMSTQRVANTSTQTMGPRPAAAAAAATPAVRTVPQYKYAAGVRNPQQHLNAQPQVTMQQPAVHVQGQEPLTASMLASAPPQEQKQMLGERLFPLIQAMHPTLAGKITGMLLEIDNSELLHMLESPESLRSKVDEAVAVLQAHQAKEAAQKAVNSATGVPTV
Rce1 inh: blocks yeast Ras-converting enzyme; yeast membranes, quenched prenylated peptide cleavage fluorescence; 0.27% of 290,000 active; calls only;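 active = fall in fluorescence gain of 50% or more versus controls, with final raw signal at or below 3038400; inconclusive = same 50% fall but final raw signal above 3038400; inactive = fall in fluorescence gain under 50%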;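 note: plate controls were neutral control wells for no effect and wells lacking membranes for full effect; tested at 10 µM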
UUG fidelity: alters start codon recognition fidelity in yeast | S. cerevisiae UUG-firefly luciferase reporter, luminescence/redox ratio | activity score, % at 18.7 µM | 0.13% of 350,000 active;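 active = replicate mean at a twofold rise or more, about +100% in these data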;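 note: firefly luciferase made from a UUG start codon reports start codon fidelity; reporter light over untreated wells divided by growth signal over untreated wells; some hits fall short of that in this replicate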
MT1-MMP act inh: inhibitors of human MT1-MMP activation | GFP/RFP ratio change, % at 20 µM | AID 651647 | HT1080 RFP-PRO-GFP cells, GFP/RFP ratio fluorescence, overnight; percent of plate control window, DMSO zero | 0.061% of 360,000 active | P50281;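 active = GFP/RFP ratio change of at least 30% with cell ATP level not reduced by more than half and red fluorescence within 50% of control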; note: strong numbers were not always called active
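Test system: HT1080 RFP-PRO-GFP cells; Benchmarks: DMSO and RFP-L50D-GFP cell wells; Timing: cells overnight before dosing, compound overnight, 37 °C, 5% CO2; Compound: one 20 µM compound dose with 1% DMSO; Read-out: GFP/RFP fluorescence ratio.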
CSC inhib: cancer stem cell inhibition; cancer stem cell-like cells viability, luminescence; inhibition, % at 7.5 µM; 1.1% of 300,000 active; AID 2717;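 active = mean at 75% or more and at least half the replicates too; inconclusive = mean and replicates disagree; tested in HMLE shEcad cells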;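 note: 0% = median of negative and 100% = median of positive control wells; the first replicate is given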
eIF4H inh retest: second read-out of eIF4H inh, no call of its own (marks repeat the call); inhibition, %; compound at 20 µM; confirmation average;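 mean of two retest wells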
PABP FP inh retest: also measured in PABP FP inh; calls as there; inhibition, %; compound at 20 µM; confirmation repeats;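 mean of two retest wells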
MT1-MMP act inh RFP: second read-out of MT1-MMP act inh, no call of its own (marks repeat the call); RFP signal change, %; measured here: RFP expression control read;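 0 = vehicle wells; hits needed this value within 50% of zero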
* marks the source's active call; other numbers are inactive results; i = inactive; ? = inconclusive; nt = no result given.

SMILES	eIF4H inh	Env fusion inh	PABP FP inh	Rce1 inh	UUG fidelity	MT1-MMP act inh	MT1-MMP act inh RFP	CSC inhib	others
Cc1ccc(C(=O)C2=C(O)C(=O)N(CC3CCCO3)C2c2ccccc2F)o1 (stereo unspecified)	2	7	15	i	-13	-2	3	-1
O=C1[C@H]2[C@@H](c3ccc(F)cc3)N3C(=O)N(c4ccc(Br)cc4)C(=O)[C@@]3(Cc3ccc(Cl)cc3)[C@H]2C(=O)N1C1CCCCC1	2	72*	5	i	-8	0	-6	1
CC(C)(C)OC(=O)N1CCC[C@H]1c1nnc(SCc2cccc(Cl)c2)o1	-8	-11	-13	i	nt	2	1	-6
CC1CCCCC1NC(=O)COC(=O)c1cc(=O)c2ccccc2o1 (stereo unspecified)	-1	4	-2	i	nt	0	6	-7
Cc1cc(C)c(NC(=O)CNC(=O)c2ccc3c(=O)n4c(nc3c2)CCC4)c(C)c1	nt	nt	nt	nt	-21	-3	1	-17
O=C(Nc1ccc(Cc2ccncc2)cc1)C1CCC(N2C(=O)C3C4C=CC(C5CC45)C3C2=O)CC1 (stereo unspecified)	-6	1	-4	i	-18	4	-14	-24
O=C(CN(Cc1ccccc1)S(=O)(=O)c1ccc(F)cc1)NCc1ccccn1	-11	-24	6	i	-13	-3	0	-11
Cn1nc(-c2ccccc2)c(N2CCCCC2)cc1=O	-10	5	11	i	nt	1	4	nt
O=C(Nc1nnc(C(F)(F)F)s1)C1COc2ccccc2O1 (stereo unspecified)	0	nt	-2	i	-14	2	-3	20
COc1cc(C(=O)OCC2CC(c3ccccc3)=NO2)cc(OC)c1OC (stereo unspecified)	-8	15	-3	i	nt	9	1	-8
Cc1cc(C)c2nc(C(F)(F)F)nc(NCCCN3CCOCC3)c2c1	-5	22	-1	i	-13	-5	-16	3
COC(=O)[C@@H](NCc1cccc(CN([C@H](C(=O)OC)C(C)C)S(C)(=O)=O)c1)C(C)C	5	-17	-3	i	-3	-4	-4	11
COc1ccc(-n2c(C)c([N+](=O)[O-])c3ccc(O)c(CN4CCCCC4)c32)cc1	-1	?	-4	i	-5	-19	-14	15
COc1ccc(N2CCN(C(=O)CCCCCn3c(=O)[nH]c4ccsc4c3=O)CC2)cc1	20	1	-5	i	-8	1	-1	nt
Clc1ccccc1-c1nc(N/N=C/c2cccnc2)c2ccccc2n1	-10	nt	-10	i	nt	-4	2	10
O=C1CCN(Cc2ccccc2)C=C1c1ccc(C(F)(F)F)cc1	nt	8	nt	nt	-15	-2	-5	27
O=C(CN1CCCC1)OCCCc1ccccc1	3	-1	-6	i	-13	1	6	-13
CCN(CC)C(=O)CN(c1ccc(Cl)cc1)S(=O)(=O)c1ccccc1	-2	8	-3	i	-9	-5	4	-6
CCOc1ccc(OCC)c(NC(=O)c2ccc(CNc3c(N4CCCC4)c(=O)c3=O)cc2)c1	3	23	-1	i	nt	5	-3	10
O=C(O)c1cc(N2CCOCC2)nc2ccccc12	-16	?	0	i	-4	-8	-2	-13
CC(=O)c1ccc(N(C(=O)c2csnn2)C(C(=O)NC(C)(C)C)c2cccs2)cc1 (stereo unspecified)	1	42	-6	i	-16	-1	0	1
c1ccc(OCc2nn3c(-c4n[nH]c5c4CCC5)nnc3s2)cc1	15	nt	24	i	-4	3	-2	1
OC(CNCc1ccc(Cl)cc1)C(F)(F)F (stereo unspecified)	5	3	0	i	nt	6	1	1
CCNC(=O)c1c(NC(C)=O)sc2c1CCCC2	-2	nt	-1	i	nt	-2	-4	-10
COc1ccc(O)c(C(=O)c2cc(C#N)c(=O)n(-c3ccc(Cl)cc3)c2)c1	15	-15	-4	i	nt	-58	-6	10
O=C(Nc1ccc2c(c1)OCO2)c1cnccn1	4	-31	4	i	nt	0	3	9
Cc1cc(-c2ccccc2)nc(N2CCC(C(=O)NC(C)C)CC2)n1	2	-1	7	i	-21	-2	-1	-7
COC(=O)[C@]1(C)N[C@H](CN(C)C(=O)Nc2ccc(C(F)(F)F)cc2)[C@@H]2C(=O)N(C)C(=O)[C@@H]21	nt	4	nt	nt	-5	4	8	-12
CCS(=O)(=O)c1ccc(O)c(NC(=O)Nc2ccccc2OC)c1	-4	-1	7	i	-2	3	1	3
CCCOc1ccc(C(=O)NC(C)C(=O)O)cc1 (stereo unspecified)	-1	-11	8	i	nt	-1	2	-1

A section of the results above:
SMILES	eIF4H inh	Env fusion inh	PABP FP inh	Rce1 inh	UUG fidelity	MT1-MMP act inh	MT1-MMP act inh RFP	CSC inhib	others
CCS(=O)(=O)c1ccc(O)c(NC(=O)Nc2ccccc2OC)c1	-4	-1	7	i	-2	3	1	3
CCCOc1ccc(C(=O)NC(C)C(=O)O)cc1 (stereo unspecified)	-1	-11	8	i	nt	-1	2	-1

Following part.
SMILES	eIF4H inh	Env fusion inh	PABP FP inh	Rce1 inh	UUG fidelity	MT1-MMP act inh	MT1-MMP act inh RFP	CSC inhib	others
CCS(=O)(=O)Nc1cccc(C(=O)O)c1	-12	nt	4	i	nt	nt	nt	2
COc1ccc(NC(=O)COC(=O)/C=C/c2cnc3ccccc3n2)cc1	4	10	21	i	nt	-2	3	-13
CC1CCC/C(=N\NC(=S)NCc2ccccc2)C1 (stereo unspecified)	8	-11	9	i	-16	-2	-2	1
CCOC(=O)c1c(C)nc2c(C)cccn12	0	nt	7	i	-2	2	2	-15
N/C(CC(=O)Nc1ccc(F)c(Cl)c1)=N\OC(=O)c1cccs1	-2	-12	-2	i	nt	-2	3	-5
Cc1ccc(S(=O)(=O)N(CC(O)CN2C(=O)NC(C)(C)C2=O)c2cccc(C)c2)cc1 (stereo unspecified)	-5	-10	2	i	2	1	0	-12
COC(=O)C/C(C)=N/Nc1ccc(S(=O)(=O)N2CCCC2)cc1[N+](=O)[O-]	4	-1	-3	i	-2	2	2	-8
CC1CCN(C(=O)C2CCC(CNc3c(N4CCCCC4)c(=O)c3=O)CC2)CC1 (stereo unspecified)	8	6	4	i	nt	1	-4	-4
CC(C)(C)c1ccc(-n2ncc3c2CCCC3NC(=O)C2=NNC(=O)CC2)cc1 (stereo unspecified)	1	34	-1	i	-4	5	-23	5
O=C(Cn1c(=O)n(-c2cccc(Cl)c2)c(=O)n1CC(=O)N1CCCCC1)N1CCCCC1	10	nt	13	i	-16	-3	2	-6
CCOC(=O)C1(CCOc2ccccc2)CCN(Cc2ccc(O)c(OC)c2)CC1	-4	8	6	i	-16	2	-3	5
CCOC(=O)N1CCN(C(=O)CSc2nnc(-c3cccs3)o2)CC1	-1	3	4	i	13	1	0	4
CCOc1ccc(C(=O)Nc2cc(-c3nc4ccccc4[nH]3)ccc2Cl)cc1[N+](=O)[O-]	-10	-2	6	i	nt	-11	-12	?
O=C(O)c1ccc(Cl)cc1Nc1nc2cc(Cl)ccc2o1	-8	0	12	i	-14	1	-2	-9
Cc1c(/C=C/C(=O)c2ccc(Cl)s2)cnn1C	2	-23	-1	i	1	2	1	-5
O=C1CCc2cc(S(=O)(=O)Nc3ccccc3)ccc2N1	nt	nt	nt	nt	-7	-3	-1	-1
O=C(CSc1nccn(-c2ccc(Br)cc2)c1=O)Nc1ccccc1F	nt	nt	nt	i	-12	3	-1	8
CCOC(=O)/C(C(=O)Nc1ccccc1Cl)=C1/NC(C)(C)Cc2ccccc21	8	nt	2	i	-5	2	1	4
COc1ccccc1CC(=O)Nc1ccc(S(=O)(=O)N2CCOCC2)cc1	-6	-2	15	i	-10	2	0	-2
Cc1ccc2nc3c(cc2c1)c(NC(=O)c1cccnc1)nn3C	3	nt	-3	i	-15	3	5	6
O=C(Nc1cccc2ccccc12)/C(=C\c1cccc([N+](=O)[O-])c1)NC(=O)c1cccs1	3	-64	0	i	5	-3	-4	-19
COc1ccc(S(=O)(=O)NC(CC(C)C)C(=O)NC(C)c2cccs2)cc1 (stereo unspecified)	nt	-19	nt	nt	8	-1	-3	nt
O=C(Nc1ccc(C(=O)O)cc1)/C(=C\c1ccc2c(c1)OCO2)NC(=O)c1ccccc1	15	10	-2	i	8	nt	nt	-8
C(=N\N1CCN(Cc2cccc3ccccc23)CC1)/c1cccnc1	14	nt	8	i	nt	-2	-2	19
S=C(NCCC(c1ccccc1)c1ccccc1)Nc1cccc(Cl)c1	-7	nt	-17	i	nt	1	-3	122*
CC1(/[N+]([O-])=C/c2ccccc2F)CCCCC1=O (stereo unspecified)	-1	-8	-10	i	nt	0	8	-9
CCOC(=O)C1CCN(C(=O)C(C)Oc2ccc(C(=O)c3ccccc3)cc2)CC1 (stereo unspecified)	nt	-5	nt	nt	-7	3	-3	nt
COc1ccc(C(=O)NCCS(=O)(=O)NCc2cccnc2)cc1	nt	-17	nt	i	-3	-4	5	nt
CCC1C(=O)CC(c2ccccc2)NC1c1ccccc1 (stereo unspecified)	7	-1	-7	i	nt	-1	-1	10
O=C(COc1ccc(Br)cc1F)N1CCN(c2ncccn2)CC1	3	-7	-11	i	nt	0	1	5
COc1cc(/C=N/Nc2nc(C)cc(C)n2)ccc1OC(=O)c1ccco1	3	nt	-1	i	nt	0	5	2
O=C(CSc1ncnc2ccccc12)Nc1ccc(N2CCOCC2)cc1	-3	nt	-2	i	nt	nt	nt	nt
O=S(=O)(c1ccc(F)cc1)N1CN(Cc2ccco2)c2nc3ccccc3nc21	122*	nt	122*	i	nt	-54	19	-3	eIF4H inh retest=95*;PABP FP inh retest=93*
NC(=O)Cn1cc(/C=N\NS(=O)(=O)c2ccc(Cl)cc2)c2ccccc21	1	-4	1	i	-5	0	2	-2
O=C(COC(=O)c1ncc(Cl)c(Cl)c1Cl)NC1CCS(=O)(=O)C1 (stereo unspecified)	nt	-19	nt	i	nt	0	1	-3
Cc1ccccc1OCCC(=O)Nc1ccc2c(C)cc(=O)oc2c1	-8	-42	-5	i	-17	3	3	11
CSc1ccccc1NC(=O)CSc1nnnn1-c1ccccc1SC	0	-3	0	i	-9	2	5	-10
COc1ccccc1NC(=S)Nc1cccc2cnccc12	-4	58*	-1	i	nt	0	-6	24
O=C(Nc1ccccc1C(=O)NCc1ccco1)c1ccco1	3	-14	-9	i	-32	-2	3	5
O=C(OCc1c(F)cccc1Cl)c1cnc2ccccc2n1	13	0	8	nt	-17	2	6	-1
CCc1cccc(C)c1NC(=O)C1=C(C(=O)O)CCCC1	-7	7	12	i	-10	-5	6	-4
CC1CCN(S(=O)(=O)c2ccc3c(c2)c(=O)c(C(=O)NCc2ccco2)cn3C)CC1	0	-7	3	i	nt	-3	0	-9
O=C(O)c1cc(N/N=C/C=C/c2ccccc2)ccc1Cl	4	-136	16	i	-9	1	3	nt
CCc1ccc(NC(=O)C(C)OC(=O)c2ccc(N3CCCC3)c([N+](=O)[O-])c2)cc1 (stereo unspecified)	-7	5	-2	i	nt	-2	-2	13
Cc1ccc(C)c(NC(=O)CN2C(=O)CNC2=O)c1	-3	nt	6	i	0	-2	1	20
CC(C)[C@H](NC(=O)OCc1ccccc1)C(=O)OCc1ccccc1	0	1	-8	i	-4	1	1	-14
COc1ccc(C2c3ccc(O)cc3Oc3ncn4nc(-c5ccncc5)nc4c32)cc1OC (stereo unspecified)	-9	32	13	i	nt	2	-10	12
O=C(Cn1nnc2ccccc2c1=O)Nc1ccc(S(=O)(=O)N2CCOCC2)cc1	-8	-1	-8	i	nt	2	1	-11
Cc1cccc(COc2coc(CN3CCN(C(=O)c4ccco4)CC3)cc2=O)c1	nt	-5	nt	i	-15	-2	1	-1
CCN1CCN(C(=O)CN(c2ccc(C)cc2)S(C)(=O)=O)CC1	-2	-44	-14	i	-10	-1	4	-12
